Screening data (PubChem)
Beta apoptosis = blocks beta cell apoptosis; AID 435005; hit rate 0.8% among 300,000; INS-1E cytokine-induced death, ATP luminescence, 48 h; percent of positive-control rescue, neutral wells zero; protection from apoptosis, % (concentration not given with the values);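 active means all replicates at 75% or more, or half of them and the mean; inconclusive means half reach 75% but not the mean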;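 further: 0% = cytokine-treated negative control wells and 100% = positive control rescue; higher means more ATP so stronger rescue from cytokine killing; wells of about 40 µL received 100 nL stock; the first replicate is given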
Bfl-1 A1 inh = inhibitors of the anti-apoptotic protein A1, read as caspase activation; MEF A1-2A-BIM cells, Caspase-Glo 3/7 luminescence, 3 h; percent of clofoctol response, vehicle zero; AID 2462; hit rate 0.066% among 330,000; caspase activation, % (no concentration beside the values);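 active means over half of replicate activation scores above 10%, or exactly half above 10 with the replicate mean above 10; inconclusive means replicate mean below 10 yet half the replicates above 10; inactive means over half of replicates below 10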;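 further: wells of about 30 µL received 50 nL stock; many hits fall short of the cut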
RanGTP-Imp inh = disruptors of Ran-importin-beta complex formation – biochemical, FRET, CFP-Ran, YFP-importin-beta, homogeneous, primary screen; cell-free CFP-Ran/YFP-importin-beta FRET ratio; inhibition, % (test concentration not listed); hit rate 1.1% among 300,000; AID 2216;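 active means most replicates above 15%; inconclusive means exactly half above 15%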;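 further: 0% = DMSO wells and 100% = Ran loaded with GDP instead of GTP; wells of about 40 µL received 100 nL stock; the first replicate is given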
T cruzi repl = T. cruzi replication inhibition. T. cruzi beta-gal in NIH3T3, luminescence, 90 h. inhibition, % (test concentration not listed). hit rate 1.4% among 300,000. AID 1885;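 active means mean inhibition across valid replicates above about 55%, limit read from the data; inconclusive means mean below that limit but half or more replicates reach it; inactive means mean below it, under half of replicates reach it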;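 further: signal also drops with host cell toxicity which is not excluded here; 0% = plate median of DMSO wells and 100% = zero luminescence signal; higher percent means less beta-gal luminescence so fewer parasites; stock transfer was 50 nL into about 50 µL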
Vif A3G = inhibitors of Vif binding to APOBEC3G peptide, primary screen, biochemical, TR-FRET, GST-Vif 1-94, biotin-A3G peptide, dose response retest (AID 1117319); TR-FRET GST-Vif / biotin-A3G peptide binding; higher % means a stronger effect; test concentration not given here; strong numbers were not always called active; one-dose inhibition, %; IC50 in µM for titrated hits; hit rate 0.57% among 260,000;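 active means above the screen mean plus three standard deviations and confirmed in dose response; inconclusive means results disagree or hit not tested in dose response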;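 further: Vif residues 1-94 fused to GST binding biotinylated APOBEC3G peptide 110-148; 0% = full assay without inhibitor and 100% = GST in place of GST-Vif; retest series ran down from 100 µM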
AF4-AF9 inh = blocks AF4 peptide binding to human AF9. P42568. AlphaScreen, biotin-AF4 peptide binding to FLAG-AF9. inhibition, % at 10 µM. hit rate 0.47% among 350,000. AID 651704;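 active means every replicate reaching a set inhibition limit, whatever the replicate mean, cut at about 25% in these data; inconclusive means mean inhibition reaches that limit but some replicates miss it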;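 further: 0% = plate neutral control median and 100% = total signal loss; the record names both 10 and 1 µM as test concentration; the first replicate is given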
Target sequence (P42568 whole entry, looked up): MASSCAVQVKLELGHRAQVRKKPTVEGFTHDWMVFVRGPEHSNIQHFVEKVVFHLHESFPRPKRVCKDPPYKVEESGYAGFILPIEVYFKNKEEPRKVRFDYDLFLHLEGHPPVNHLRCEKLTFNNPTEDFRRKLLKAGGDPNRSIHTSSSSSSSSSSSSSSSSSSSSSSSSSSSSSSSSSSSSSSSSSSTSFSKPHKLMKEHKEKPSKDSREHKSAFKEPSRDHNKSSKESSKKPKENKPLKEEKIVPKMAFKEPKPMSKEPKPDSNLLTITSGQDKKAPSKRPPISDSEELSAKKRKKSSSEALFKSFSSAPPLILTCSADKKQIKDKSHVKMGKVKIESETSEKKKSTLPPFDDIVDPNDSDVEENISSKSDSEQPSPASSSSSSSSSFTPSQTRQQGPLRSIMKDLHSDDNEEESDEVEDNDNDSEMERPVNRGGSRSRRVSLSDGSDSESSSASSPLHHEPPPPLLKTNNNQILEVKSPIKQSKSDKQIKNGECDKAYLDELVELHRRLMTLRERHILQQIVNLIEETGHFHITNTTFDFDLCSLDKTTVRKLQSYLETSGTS
Calb FLC = affects C. albicans growth with fluconazole. growth inhibition, % (test concentration not listed). hit rate 0.57% among 300,000. C. albicans CaCi-2 (fluconazole-resistant clinical isolate) + fluconazole, Alamar Blue growth, 48 h;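 active means most replicates above 75%; inconclusive means exactly half above 75%; inactive means most below 75%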;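 further: all wells also contain fluconazole at 8 µg/ml as a sub-toxic cotreatment; 0% = median of DMSO wells and 100% = median of geldanamycin control wells; wells of about 8 µL received 7.5 nL stock; the first replicate is given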
rRNA inh HTS = selective bacterial rRNA inhibition in E. coli. E. coli WT GFP vs humanized-ribosome RFP mutants, fluorescence, 24 h; hits give low values; DMSO median 0, no signal -100. GFP signal change (wild-type ribosome), % (test concentration not listed). hit rate 1.6% among 350,000. AID 720706;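 active means significant combined selectivity score with lowered wild-type GFP, culture density cut under 30%, mutant RFP and density less affected; inactive means any of these conditions unmet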; further: one replicate is shown; some compounds called inactive have numbers as strong as hits
rRNA inh HTS OD600 = also measured in rRNA inh HTS; calls as there; OD600 change, %; measured here: OD600 growth;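 optical density of the mix in the first replicate; 0 = DMSO median and -100 = no signal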
rRNA inh HTS RFP = recorded beside rRNA inh HTS, whose call it bears; RFP signal change, %; measured here: RFP humanized mutant strains;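 first replicate; 0 = DMSO median and -100 = no signal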
Numbers without * were called inactive; ? = inconclusive; nt = not tested or not shown. Only part of the results is shown; the hit share may differ from the screen's.

Sequence of screens: Beta apoptosis	Bfl-1 A1 inh	RanGTP-Imp inh	T cruzi repl	Vif A3G	AF4-AF9 inh	Calb FLC	rRNA inh HTS	rRNA inh HTS OD600	rRNA inh HTS RFP
CCN1CCc2nc(NC(=O)c3ccc(S(=O)(=O)N(C)C)cc3)sc2C1
→ -4	0.3	-1.6	4	nt	1.0	9	7	0	0.9
CCC(Sc1ccc2nnc(-c3cccnc3)n2n1)C(=O)O (stereo unspecified)
→ -1	-0.1	2.7	-1	0%	-17	5	2	3	-1.3
COc1ccc(NS(=O)(=O)c2ccc3c(c2)OCCO3)cc1OC
→ 66	-0.5	6.0	-48	-2%	-1.2	1	5	2	2.2
CC(C)CCNC(=O)COc1ccc2c3c(c(=O)oc2c1)CCC3
→ -1	0.1	4.2	8	3%	nt	30	nt	nt	nt
CCOc1ccc(NC(=O)CN(C)C(=O)CC2OC(=O)c3ccccc32)cc1OCC (stereo unspecified)
→ nt	0.7	-2.3	-6	6%	-0.6	0	16	4	1.8
CC(C)N1CCc2c(sc(NC(=O)CCS(=O)(=O)c3ccccc3)c2C#N)C1
→ -2	-0.4	169*	15	-3%	0.8	19	6	4	1.4
CCc1ccc(OCC(=O)NC(=S)Nc2ccc(S(=O)(=O)NC3CCCCC3)cc2)cc1
→ -6	-0.4	-2.9	-1	0%	nt	4	nt	nt	nt
CC(=O)Nc1ccc(Br)c2ccccc12
→ 3	-0.1	-0.4	-18	-36%	-1.7	9	5	-8	-0.8
Cc1cc2ncn(/N=C/c3ccc4c(c3)OCO4)c2cc1C
→ -2	0.3	-2.4	4	-8%	5.7	1	-13	-15	-2.7
CN(C)/C=C(/C(=O)c1ccc(Cl)cc1)n1cncn1
→ nt	0.0	0.8	-10	nt	-1.4	7	1	0	-0.4
CCOC(=O)c1c(NC(=O)c2c(C(=O)O)cccc2[N+](=O)[O-])sc2c1CCCC2
→ -6	1.2	0.0	6	1%	0.4	0	-48	-71	-27
CC(=O)Oc1ccc(-c2cccc(C(=O)O)c2)cc1
→ -3	-0.3	-0.8	-13	-2%	nt	-4	nt	nt	nt
O=C(COC(=O)C1Cc2ccccc2CN1C(=O)c1ccccc1)Nc1ccc(SC(F)F)cc1 (stereo unspecified)
→ -1	0.3	3.4	-27	nt	2.6	-10	8	1	-2.6
O=C(CSc1nnc(-c2ccncc2)n1C1CCCCC1)Nc1cccc(O)c1
→ -2	0.5	5.8	-7	-1%	nt	-13	-13	-6	-1.0
Cc1cccc(COC(=O)CCCNC(=O)c2ccc(Cl)cc2)c1
→ -2	0.4	nt	nt	-2%	-1.6	nt	-8	-28	-3.3
C[N+]1(C2CCC3CCCC2C3O)CCCC1 (stereo unspecified)
→ 1	0.6	-2.7	-18	nt	nt	5	nt	nt	nt
CC(=O)c1ccc(NC(=O)Nc2cccc3ccccc23)cc1
→ -2	-0.2	nt	nt	-3%	-0.5	81*	6	-1	2.7
COC(=O)c1ccc(C(=O)OC)c(NC(=O)CSc2n[nH]c(N)n2)c1
→ 2	-0.2	nt	nt	-14%	-0.1	nt	2	0	3.0
CC(=O)Nc1ccc(NC(=O)COc2ccc(S(=O)(=O)N3CCCC3)cc2)cc1
→ nt	-0.2	?	7	-3%	2.6	-5	-3	6	-1.3
COc1ccc(CNc2ncc(-c3ccccc3)n2C)c2ccccc12
→ -13	-0.4	4.8	4	nt	14	-1	-3	-11	1.1
Cc1ccc2c(C)c(C(=O)N(C)C(C)c3ccncn3)oc2c1C (stereo unspecified)
→ -2	1.0	6.8	-6	nt	-0.2	3	-6	-11	0.4
COc1ccc(/C=C2/S/C(=N/N=C3\CC4CCC3(C)C4(C)C)NC2=O)cc1 (stereo unspecified)
→ 7	1.2	-0.9	-1	-6%	nt	-20	nt	nt	nt
Cc1noc(C)c1C(=O)N(CC(=O)Nc1ccc(Cl)c(C(F)(F)F)c1)Cc1ccco1
→ -6	-0.2	nt	nt	nt	4.0	nt	2	4	0.3
O=C(c1cc(S(=O)(=O)N2CCOCC2)ccc1F)N1CCCc2ccccc21
→ -9	0.7	-1.6	-7	-1%	nt	nt	nt	nt	nt
CCOC(=O)C1CCCN(C(=S)Nc2ccc(C)cc2C)C1 (stereo unspecified)
→ -4	1.0	-2.9	5	-5%	nt	-14	nt	nt	nt
CC1CCCN(C(=O)COC(=O)C2CCN(S(=O)(=O)c3ccc(Cl)c(C(F)(F)F)c3)CC2)C1 (stereo unspecified)
→ -4	-1.8	-1.4	-3	7%	-0.7	2	3	12	0.8
CCN(CC)CCNC(=O)c1ccc(NC(=O)c2cc(S(=O)(=O)N3CCCCC3)ccc2C)cc1
→ 1	0.2	-1.2	3	nt	6.5	-1	4	7	-0.2
Nc1cc(N)nc(SCc2nnnn2-c2ccc(Cl)cc2)n1
→ -13	-0.3	5.2	-19	?	nt	7	nt	nt	nt
COc1ccc(NC(=O)CN2CCC(C(=O)c3ccc(C)cc3)CC2)c(OC)c1
→ -6	0.1	-0.6	11	nt	1.5	15	-21	-34	-0.3
O=C(CS(=O)(=O)c1ccccc1)Nc1ccc(N2CCOCC2)cc1
→ -4	0.2	0.0	-18	0%	0.4	0	18	7	2.8
CN(C)CCNC(=O)c1sc2nc(-c3ccccc3)cc(C(F)(F)F)c2c1N
→ 8	-0.2	-2.7	18	nt	22	7	-33	-62	-20
CC(=O)NN1C(=O)c2ccc(Oc3ccc4c(c3)C(=O)N(NC(C)=O)C4=O)cc2C1=O
→ -10	-0.4	2.3	-11	-6%	nt	12	nt	nt	nt
COc1cc(Cl)c(C)cc1NC(=O)Cc1cccs1
→ nt	1.0	2.5	10	nt	0.0	34	6	11	1.5
COc1ccccc1CNC(=O)Cn1cc(Br)ccc1=O
→ -5	-2.6	0.2	-12	-4%	?	4	nt	nt	nt
Cc1ccc(C(=O)C[n+]2ccccc2)cc1
→ 0	-0.1	0.6	-17	-2%	-0.6	-1	12	7	4.6
CN(C)CCOC1c2ccccc2C=Cc2ccccc21
→ -1	1.6	1.2	3	nt	0.1	1	9	-1	-0.5
CC1CN(C(=O)N[C@@H](Cc2ccccc2)C(=O)O)CC(C)O1 (stereo partly specified)
→ 2	0.1	-2.1	0	66%	nt	7	nt	nt	nt
CCc1ccc(S(=O)(=O)Nc2ccncc2)cc1
→ -7	0.6	-2.7	-7	11%	4.7	-6	16	14	2.5
CCOC(=O)N1CCN(C(=O)C2CCC(=O)N(Cc3cccc(C(F)(F)F)c3)C2)CC1 (stereo unspecified)
→ 1	0.9	-2.7	-3	nt	-0.1	9	10	5	-0.4
Cc1ccc(S(=O)(=O)N2CC(=O)Nc3ccccc32)cc1
→ 0	-0.3	3.4	-14	-3%	4.0	7	-36	3	33
COc1ccccc1NC(=S)N(Cc1ccccc1)Cc1cccnc1
→ -4	0.2	-1.6	47	10%	2.7	-10	-14	-15	-3.4
Cc1onc(-c2c(Cl)cccc2Cl)c1C(=O)N1CCSCC1
→ 0	0.9	0.0	-5	-7%	-1.0	10	nt	nt	nt
CCCCNC(=O)Cn1nc(C)c(S(=O)(=O)N2CCOCC2)c1C
→ -8	-0.1	nt	nt	-4%	?	nt	11	20	0.0
CCCn1nnc(NC(=S)NC(=O)/C=C/c2ccco2)n1
→ nt	0.4	0.1	-11	18%	0.2	4	-7	-1	14
Cc1ccc(-c2cc(C(=O)Nc3cc(C)on3)no2)cc1
→ 6	-2.4	2.7	-28	7%	-0.8	70	17	12	7.1
Cc1ccc(C)c(Cn2nnc3c(=O)[nH]c(C4CCN(S(=O)(=O)c5ccc(S(=O)(=O)N(C)C)cc5)CC4)nc32)c1
→ 9	-0.1	0.0	24	nt	0.8	-1	9	13	-2.2
COCCCNC(=O)c1cn(-c2cccc(OC)c2)c(=O)c2ccccc12
→ -4	-0.3	4.3	2	-2%	-0.4	-4	9	6	-0.3
CC(NC(=O)c1ccccc1F)c1nnc(SCC(=O)NC2CCCCC2)n1C (stereo unspecified)
→ -2	-0.3	0.1	15	?	0.2	-6	3	9	1.3
COc1ccc(/C=C/C(=O)N2CCN(c3ccccc3)CC2)cc1S(=O)(=O)N1CCOCC1
→ -7	0.0	-2.7	12	-12%	4.8	31	0	-4	3.0
O=C(C1=NN[C@@H]2C(=O)N(c3ccccc3C(F)(F)F)C(=O)[C@H]12)C(c1ccccc1)c1ccccc1
→ -7	0.5	1.2	-18	13%	nt	11	nt	nt	nt
C#CCOCCOCCOCCNc1nc(N2CCN(C(=O)Cn3cc(CCCCN)nn3)CC2)nc(N2CCN(C(=O)[C@H]([C@@H](C)CC)n3cc(CCCCN)nn3)CC2)n1
→ 4	0.6	nt	nt	nt	26*	nt	7	1	7.3
NS(=O)(=O)c1ccc(NC(=O)COC(=O)c2cn(-c3ccccc3)nc2-c2ccccc2)cc1
→ -5	-0.3	4.2	-7	?	-21	7	6	2	11
COc1cc2c(cc1OC)C(c1cc(Br)ccc1O)N(C(C)=O)CC2 (stereo unspecified)
→ -11	0.9	6.5	-2	nt	-3.6	12	nt	nt	nt
CCN(c1cccc(C)c1)S(=O)(=O)c1ccc(-c2cc(C)no2)s1
→ 8	-0.4	5.2	6	nt	-0.2	-4	-3	-3	5.5
COc1ccccc1NC(=O)c1sc2nc(N3CCOCC3)c3c(c2c1N)CCCC3
→ -1	-1.1	-1.8	18	0%	1.4	-5	1	0	0.0
COc1cc(CNCc2ccccc2)cc(Cl)c1OC
→ -2	-0.7	3.5	-5	10%	-0.5	-17	-6	2	0.8
O=C(c1ccc(COc2ccc3c(c2)CCC3)o1)N1CCN(c2ccccc2)CC1
→ 0	-0.8	0.9	13	nt	1.0	-2	-20	-26	32
COc1ccc(NC(=O)c2ccccc2Oc2ccccc2)c(OC)c1
→ 6	1.3	?	-6	nt	0.2	8	-1	-14	3.8
CC(=O)NC(CC(=O)N1CCN(C(C)=O)CC1)c1ccccc1 (stereo unspecified)
→ -1	0.4	2.3	-9	nt	-1.6	14	16	16	2.5
CN(CC(=O)NCc1ccccn1)S(=O)(=O)c1ccc2ccccc2c1
→ -4	0.1	0.7	-5	nt	1.0	8	9	8	-0.5

The listing continues.
Sequence of screens: Beta apoptosis	Bfl-1 A1 inh	RanGTP-Imp inh	T cruzi repl	Vif A3G	AF4-AF9 inh	Calb FLC	rRNA inh HTS	rRNA inh HTS OD600	rRNA inh HTS RFP
CC(C)Nc1cc(C(C)(C)C)nc2c(-c3ccccc3)cnn12
→ nt	0.4	-1.0	nt	-1%	-4.9	1	29	22	4.9
Cc1noc(C)c1C(=O)OCC(=O)N(C)C1CCS(=O)(=O)C1 (stereo unspecified)
→ -2	-3.6	?	-7	-1%	-1.7	-28	24	22	3.9
NCCc1c(-c2ccccc2)n(-c2ccccc2)c2ccccc12
→ nt	nt	-0.2	64*	-7%	47*	-1	-59	-79	-20
COc1ccccc1C(=O)Nc1ccnn1C1CCN(Cc2cnn(C)c2C)CC1
→ -3	-0.1	-0.7	4	1%	-0.5	-5	20	12	4.4
